RecA splice inh = Mtb RecA intein splicing inhibition | inhibition, %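 (about 9 µM by stock and volumes)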 | P9WHJ3 | cell-free RecA intein splicing, fluorescence | actives 0.75% (n = 290,000); in the data active = inhibition above about 30%; inconclusive = no clear call, values can overlap the other calls;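 note: 0% = vehicle wells and 100% = reference inhibitor control wells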
Target sequence (P9WHJ3 whole entry, looked up, canonical isoform): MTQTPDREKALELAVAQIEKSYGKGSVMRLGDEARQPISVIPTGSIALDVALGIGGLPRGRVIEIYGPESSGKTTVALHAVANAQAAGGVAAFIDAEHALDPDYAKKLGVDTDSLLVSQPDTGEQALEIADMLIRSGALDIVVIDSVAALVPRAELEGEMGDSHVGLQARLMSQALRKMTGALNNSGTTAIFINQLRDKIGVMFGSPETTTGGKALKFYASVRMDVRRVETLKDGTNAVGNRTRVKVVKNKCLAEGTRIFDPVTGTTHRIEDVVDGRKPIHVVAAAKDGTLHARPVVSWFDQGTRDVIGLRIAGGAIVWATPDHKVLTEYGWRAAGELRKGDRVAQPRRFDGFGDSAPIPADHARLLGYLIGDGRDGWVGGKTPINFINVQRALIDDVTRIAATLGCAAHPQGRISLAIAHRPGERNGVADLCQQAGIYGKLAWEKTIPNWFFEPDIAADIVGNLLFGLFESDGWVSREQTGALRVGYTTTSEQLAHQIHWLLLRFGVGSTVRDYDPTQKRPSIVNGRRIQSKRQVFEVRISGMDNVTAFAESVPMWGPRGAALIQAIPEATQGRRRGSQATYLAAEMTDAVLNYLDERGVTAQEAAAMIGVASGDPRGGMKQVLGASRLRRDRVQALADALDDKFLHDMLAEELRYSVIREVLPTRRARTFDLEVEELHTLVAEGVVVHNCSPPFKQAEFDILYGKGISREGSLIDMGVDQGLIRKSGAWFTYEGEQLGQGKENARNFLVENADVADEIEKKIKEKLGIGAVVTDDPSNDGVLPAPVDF
Arbovirus inh = antivirals against arbovirus infection; arbovirus infection cell-based antiviral screen; inhibition, % at 10 µM; actives 0.37% (n = 200,000); AID 1251;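 active = inhibition from about 30%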;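 note: bluetongue infection of BSR cells; cell survival read as ATP light after 72 h; 0% = infected wells without compound and 100% = uninfected wells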
Mtb betalactam = beta-lactam sensitization of Mtb H37Rv; M. tuberculosis H37Rv growth with meropenem, percent inhibition; hits of this screen are not shown here; actives 0.27% (n = 330,000); AID 434955; inhibition, % at 25 µM;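 active = about 74% or more and at least 40 points above the plate without the antibiotic, then above 30% in a dose series; inconclusive = first-round hits that could not be retested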;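 note: growth measured after seven days incubation then overnight dye step; 0% = bacteria only wells and 100% = bacteria with antibiotic; twin plates without the antibiotic show which effects depend on it; some results filed as inactive read as strong as hits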
YopH inh = inhibitors of Yersinia enterocolitica YopH tyrosine phosphatase. fluorescence Ex485/Em525. actives 0.16% (n = 140,000). inhibition, %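 (about 10 µM by stock and volumes)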;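 active = inhibition of 50% or more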;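 note: controls were vehicle for no effect and minimum signal wells for full effect; inactives centre near -20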
Mtb H37Rv = M. tuberculosis H37Rv growth inhibitors, H37Rv strain (AID 1626) | M. tuberculosis H37Rv growth inhibition; higher % means a stronger effect | inhibition, % at 10 µM, or IC50 in µM where a hit was titrated | actives 0.95% (n = 220,000);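 active = confirmed in a dose series; inconclusive = inhibition above 80% but not taken into the dose series; inactive = below 80% or under 30% at every dose of the series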;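 note: bacteria incubated seven days before Alamar blue readout; 0% = bacteria only wells and 100% = bacteria with antibiotic wells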
Arbovirus inh repeat = recorded beside Arbovirus inh, whose call it bears; inhibition, %; measured here: 10K subset replicate screen; many hits read low in the repeat;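 first of two repeat runs on a subset; 0% = infected and 100% = uninfected wells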
* = called active by the depositor; ? = inconclusive; · = not tested or not shown.

SMILES | RecA splice inh | Arbovirus inh | Mtb betalactam | YopH inh | Mtb H37Rv | others
O=C(CCNC(=O)c1ccc([N+](=O)[O-])cc1)Nc1nccs1 | 3.6 | 12 | -4 | · | 2%
Cc1ccc(-c2nnn(CC(=O)N(c3ccccc3F)C(C(=O)NCC3CCCO3)c3c[nH]c4ccccc34)n2)cc1 (centres undefined) | 9.2 | -16 | -10 | -27 | -4%
Cc1cc(C(=O)OCn2nnc3ccccc3c2=O)c(C)n1-c1ccccc1 | 10 | 5 | 38 | -35 | 8%
Cc1ccccc1NC(=O)COc1coc(CN2CCN(c3ccccc3)CC2)cc1=O | -0.4 | · | 6 | · | ·
Cc1ccc(O)c(-c2cc(-c3cccc(Br)c3)n[nH]2)c1 | 18 | -35 | 96 | · | 77%
Cc1ccc(-c2ccc(/C=N\NC(=O)C3C(=O)NCC3c3ccccc3)o2)cc1Cl (centres undefined) | -1.5 | -38 | 95 | -18 | ?
COc1ccc(C)cc1NC(=O)CN(C)S(=O)(=O)c1ccc2c(c1)CCCN2C(C)=O | -2.6 | · | 2 | · | ·
O=C(CC(NC(=O)c1ccccc1Cl)c1ccccc1)Nc1ccc2c(c1)OCO2 (centres undefined) | -0.4 | 1 | -23 | -12 | -3%
COc1cc2nc(CN3CCN(C(c4ccccc4)c4ccccc4)CC3)[nH]c(=O)c2cc1OC | -1.4 | · | 6 | · | 0%
Cc1ccc(-c2n[nH]c(=S)n2C)cc1 | 3.4 | -2 | · | -30 | -6% | Arbovirus inh repeat=6
N#C/C(=N\Nc1ccc(Cl)c(Cl)c1)C(=O)C1CC1 | 4.1 | · | -4 | · | 24%
Cc1cccc(NS(=O)(=O)c2cccc(C(=O)N3CCN(c4ccccn4)CC3)c2)c1 | 1.3 | · | 92 | · | ·
Cc1noc(NS(=O)(=O)c2ccc(NC(=O)C(C)(C)C)cc2)c1C | -0.1 | · | 6 | · | ·
CC(=O)NC(=S)Nc1ccccc1N1CCCCC1 | 1.2 | -1 | 8 | · | 12%
CCCOc1ccc(NC(=O)C(=O)NCCCn2ccnc2)cc1 | 2.5 | -10 | -1 | -23 | -9%
O=C(CSc1nnc(CNC(=O)c2ccc(F)cc2)o1)Nc1ccc2c(c1)OCCO2 | 4.2 | · | ? | · | ·
O=C(CNC(=O)c1ccc(-c2ccccc2)cc1)OCc1c(F)cccc1Cl | -0.4 | -2 | 99 | -30 | 7.5µM*
CC(=O)Nc1ccc(-c2csc(NC=C3C(=O)OC(C)(C)OC3=O)n2)cc1 | · | 0 | -1 | · | 1%
COc1ccc(COC(=O)CN2C(=O)NC3(CCCC3)C2=O)cc1F | 0.1 | · | -11 | · | ·
Clc1cccc(Cl)c1CSc1nnc(-c2ccncc2)s1 | -2.0 | · | 0 | · | 7%
O=C(COC(=O)COc1cccc(C(F)(F)F)c1)NC(=O)NC1CCCCC1 | -3.0 | · | -10 | · | ·
Cn1cccc1C(=O)NCc1ccc(S(N)(=O)=O)cc1 | 0.2 | · | 3 | · | ·
CS(=O)(=O)N(CC(=O)N1CCCCCC1)c1cccc(Cl)c1Cl | 3.3 | · | -3 | · | ·
COc1ccc(CNC(=O)c2cc(-c3ccncc3)nc3c(C)cc(C)cc23)cc1OC | 3.8 | -4 | 39 | · | 6%
COc1ccc(CCNC(=O)CCS(=O)(=O)c2ccc3nc(C)sc3c2)cc1OC | -0.9 | · | -3 | · | ·
C/C(=N\NC(=O)c1ccc(Cl)c(Cl)c1)c1cccc(NC(=O)C(C)C)c1 | -1.4 | -9 | 7 | -23 | -2%
O=C(O)c1cc(Cl)c(Cl)cc1C(=O)Nc1cccc2ncccc12 | -4.2 | -8 | 3 | -34 | -7%
CC1(C)OC(=O)N(NCc2ccccc2)C1(C)O (centres undefined) | 1.7 | · | 1 | · | ·
COCCNC(=O)C(c1ccc(C)cc1)N(Cc1ccccc1)C(=O)CCC(=O)Nc1ccccn1 (centres undefined) | 0.8 | · | -4 | · | ·
O=S(=O)(c1ccc(N2CCCC2)nc1)N1CCCC1 | 1.3 | 3 | -2 | · | -10%
Cc1nc2ccccc2c(=O)n1-c1cccc(C(F)(F)F)c1 | -0.6 | · | -4 | · | ·
CCNC(=O)NC(=O)C(C)OC(=O)c1oc2ccc(OC)cc2c1C (centres undefined) | 1.5 | 7 | -5 | -9 | 8%
O=C(OCC(=O)N1N=C(c2ccc(Cl)cc2)CC1c1ccco1)c1ccccc1O (centres undefined) | 6.7 | 4 | 28 | -4 | 56%
CC(C(=O)O)n1cc(Cl)cn1 (centres undefined) | -2.8 | -2 | 2 | · | 7%
CC(=O)N1[C@H](Cc2ccccc2)C=C[C@]1(C)C(=O)NCCc1c[nH]c2ccccc12 | 1.2 | 9 | -3 | -9 | -6%
CCOCCCNC(=O)Cn1nc(-c2ccccc2)ccc1=O | 1.6 | -1 | 0 | -17 | · | Arbovirus inh repeat=-2
O=C(Nc1nncs1)C1CCCC1 | -0.9 | · | -7 | · | ·
CCOc1ccc(CCNC(=O)C2=C(C)C(=O)OC23CCC(C)CC3)cc1OCC (centres undefined) | -3.4 | 2 | 3 | · | -8%
CC1(C(=O)O)C=CCN1C(=O)c1ccccc1 (centres undefined) | -0.5 | 2 | -8 | -35 | -10%
C[C@H](NC(=O)N1CCn2c1nc1ccccc12)C(=O)NCc1ccco1 | -0.6 | · | -2 | · | ·
O=C(CSc1ccc(Br)cc1)NC1CCS(=O)(=O)C1 (centres undefined) | -0.7 | · | -7 | · | ·
CCOc1ccc(CNC(=O)c2ccco2)cc1 | 3.1 | 8 | 1 | · | 0%
O=C(NCc1ccco1)c1cc(-c2ccccc2)on1 | -2.2 | -7 | 0 | -20 | 3%
CCOC(=O)C1CCCN(CC(=O)Nc2c(C(=O)OC)[nH]c3ccc(Cl)cc23)C1 (centres undefined) | 5.4 | 6 | 6 | -7 | 7%
CCC(=Nc1ccc(OC)cc1OC)c1c(O)[nH]c(=O)[nH]c1=O | 2.3 | -12 | 47 | -25 | 4%
Cc1ccc(C2C(=O)N(C3CCC(C)CC3)CC(=O)N2C2CCCC2)cc1 (centres undefined) | 2.6 | -6 | 0 | -13 | 3%
COc1ccc(C(=O)CSc2nnc(C3CC3)n2N)cc1 | 1.8 | -2 | -10 | -4 | 11%
O=[N+]([O-])c1cccc(-c2nnc3n2CCCCC3)c1 | 0.0 | · | -9 | · | ·
CCCc1n(CC(O)COCc2ccccc2)c2ccccc2[n+]1C (centres undefined) | 0.6 | 3 | -3 | · | -2%
O=c1[nH]c(-c2ccccc2)nnc1-c1ccccc1 | -1.4 | · | 35 | · | 2%
Cc1cc(OC(=O)CNC(=O)OC(C)(C)C)c2c(C)cc(=O)oc2c1 | 16 | 13 | 3 | -16 | 0%
C=CCn1c(C)nnc1SCC(=O)Nc1nccs1 | 0.4 | · | 4 | · | ·
Cc1ccc2[nH]c(=O)c(C(c3nnnn3CC3CCCO3)N3CCc4ccccc4C3)cc2c1 (centres undefined) | 3.4 | -2 | 9 | 14 | -10%
O=C(COC(=O)c1ccccc1C(=O)c1ccc(Cl)c([N+](=O)[O-])c1)NC1CC1 | 17 | -34 | 0 | · | -2%
Cc1c(Cl)c([N+](=O)[O-])nn1CC(=O)Nc1c(C)n(C)n(-c2ccccc2)c1=O | 1.7 | -1 | 3 | 10 | 16%
O=C(Nc1sc2c(c1C(=O)O)CCCCC2)c1ccccc1F | -1.6 | 38* | -2 | · | -19%
O=C(CCCN1C(=O)/C(=C/c2cccs2)SC1=S)Nc1ccc(O)cc1 | 59* | · | -3 | · | ·
CC(C)(C)c1ccc(/C=C/C(=O)NCCCn2ccnc2)cc1 | 0.7 | · | 3 | · | ·
Cc1ccc(C(c2sc3nc(C)nn3c2O)N2CCOCC2)cc1 (centres undefined) | -1.7 | -1 | 5 | 64* | -3%
CCC(=O)NC(=S)Nc1ccc(S(=O)(=O)N2CCN(C)CC2)cc1 | -0.6 | -3 | 5 | -28 | 18%

Four structures out of the list, sorted by molecular weight, low to high.
SMILES | RecA splice inh | Arbovirus inh | Mtb betalactam | YopH inh | Mtb H37Rv | others
CC(C)(C)c1ccc(/C=C/C(=O)NCCCn2ccnc2)cc1 | 0.7 | · | 3 | · | ·
O=C(COC(=O)c1ccccc1C(=O)c1ccc(Cl)c([N+](=O)[O-])c1)NC1CC1 | 17 | -34 | 0 | · | -2%
Cc1c(Cl)c([N+](=O)[O-])nn1CC(=O)Nc1c(C)n(C)n(-c2ccccc2)c1=O | 1.7 | -1 | 3 | 10 | 16%
Cc1ccc2[nH]c(=O)c(C(c3nnnn3CC3CCCO3)N3CCc4ccccc4C3)cc2c1 (centres undefined) | 3.4 | -2 | 9 | 14 | -10%

More records
SMILES | RecA splice inh | Arbovirus inh | Mtb betalactam | YopH inh | Mtb H37Rv | others
COc1ccc(Nc2nc(N)nc(CSCCO)n2)cc1 | -2.1 | -3 | 13 | -15 | 3%
COc1ccccc1N1CCN(C(=O)CSc2nnc(NC(=O)C3CCC3)s2)CC1 | 3.2 | 8 | -6 | -42 | -5%
Cc1cccc(C)c1NC(=O)c1cccn(Cc2ccc3c(c2)OC(F)(F)O3)c1=O | 17 | -34 | 17 | -20 | 7%
O=[N+]([O-])c1ccc(/C=N/Nc2ccccn2)cc1 | 0.0 | · | 19 | · | ·
CC(C)CCNC(=O)CN(CCN1CCOCC1)C(=O)Cn1nnc(-c2ccc(F)cc2)n1 | -0.8 | 3 | -4 | -5 | -13%
Cc1onc(-c2c(Cl)cccc2Cl)c1C(=O)NCCc1ccncc1 | -0.3 | · | 1 | · | ·
CC(C)c1ccc(/C=N/n2c(-c3ccccc3)n[nH]c2=S)cc1 | -4.0 | · | 15 | · | ·
NC(=O)CSc1nnc(Cn2c(=O)sc3ccccc32)n1-c1ccccc1 | -0.5 | -2 | 1 | -36 | -3% | Arbovirus inh repeat=0
CCOC(=O)c1ccc(NC(=O)C2CCN(C(=O)c3ccc(OC)c(OC)c3)CC2)cc1 | -1.3 | 7 | 6 | 5 | -7%
O=C(O)c1cccc(Nc2c([N+](=O)[O-])c(=O)oc3ccccc23)c1 | -3.3 | · | -4 | · | -4%
Cc1ccc(C2CC(=O)NC(SCC(=O)Nc3nccs3)=C2C#N)cc1 (centres undefined) | -1.1 | -2 | -1 | -39 | 4%
COc1ccc(-c2cc(C#N)nc(N3CCN(C)CC3)n2)cc1 | 3.7 | 4 | -3 | -29 | 2%
O=C(Cn1cncn1)c1ccccc1Br | 1.3 | · | -1 | · | ·
Cc1ccsc1-c1nc(C(N)=O)c2[nH]c(=O)n(-c3ccc(Cl)cc3)c2n1 | -2.8 | -22 | -2 | -12 | ·
CCc1ccc(/C(C)=N\Nc2ccc([N+](=O)[O-])cc2)cc1 | 0.1 | -1 | 91 | -39 | 6%
Cc1nn(CC(=O)O)c(=O)c2ccccc12 | -0.7 | -1 | -2 | -24 | -4%
COc1ccc(CN2CCC(C(=O)N3CCCC(C)C3)CC2)cc1OC (centres undefined) | -0.7 | -1 | 4 | · | 0%
CCCN(CCC)S(=O)(=O)c1ccc(C(=O)N2CCOCC2)cc1 | -1.2 | 5 | -14 | 9 | 2%
CCN(CC(=O)Nc1ccc2c(c1)OCCO2)C(=O)c1ccc(Cl)cc1Cl | -1.5 | · | 4 | · | ·
Clc1ccc(C2Nc3cccc4cccc(c34)N2)cc1 | 2.2 | · | 9 | · | ·
COc1ccccc1CCNC(=O)Cn1ccc2cc(S(=O)(=O)N3CCCC3)ccc21 | -1.4 | · | 14 | · | ·
Cc1cc(NC(=O)c2cc(-c3ccc4c(c3)OCO4)on2)n(-c2ccccc2)n1 | 0.3 | 5 | 2 | -44 | 4%
Cc1sc2nc(-c3ccccn3)[nH]c(=O)c2c1-c1ccccc1 | -0.2 | -20 | 91 | · | 0.69µM*
Cc1cc(C(F)(F)F)nc(-n2cc(-c3cccc(N)c3)nn2)n1 | -0.8 | -5 | -4 | · | 2%
Nc1nc(C2CCCN2S(=O)(=O)c2ccc(Cl)cc2)cs1 (centres undefined) | -0.9 | 1 | -6 | -11 | 8%
O=C(NCCc1c[nH]c2ccccc12)c1cc([N+](=O)[O-])cc([N+](=O)[O-])c1 | -0.6 | · | 99 | · | ·
CC(C)c1ccc(C(CC(=O)c2ccc(Cl)cc2)C(=O)O)cc1 (centres undefined) | 4.1 | 12 | -3 | -20 | -4%
CC(=O)N1CCc2cc(C(=O)CN3CCCN(Cc4ccc(F)cc4)C3)ccc21 | -3.6 | 9 | -4 | -14 | -1% | Arbovirus inh repeat=1
Cn1cnnc1SCC(=O)Nc1ccccc1Sc1ccccc1 | 0.4 | 7 | -4 | · | -13%
COCCCn1c(=O)c2ccccc2n(Cc2cccc(C)c2)c1=O | 2.4 | · | -9 | · | ·
Cc1[nH]n(-c2ccccc2)c(=O)c1/C=N/N1C(=O)c2ccc3c4c(ccc(c24)C1=O)CC3 | 12 | -16 | 45 | -2 | 53%

High-throughput results deposited in PubChem by several laboratories.

Not all compounds are listed. The share of hits here may be higher or lower than overall.
